Screening data (PubChem BioAssay)
AF4-AF9 inh = blocks AF4 peptide binding to human AF9. P42568. AlphaScreen, biotin-AF4 peptide binding to FLAG-AF9. inhibition, % at 10 µM. hit rate 0.47% among 350,000. AID 651704;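 active means every replicate reaching a set inhibition limit, whatever the replicate mean, cut at about 25% in these data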;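 further: 0% = plate neutral control median and 100% = total signal loss; the record names both 10 and 1 µM as test concentration; the first replicate is given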
Target sequence (P42568 whole entry, looked up): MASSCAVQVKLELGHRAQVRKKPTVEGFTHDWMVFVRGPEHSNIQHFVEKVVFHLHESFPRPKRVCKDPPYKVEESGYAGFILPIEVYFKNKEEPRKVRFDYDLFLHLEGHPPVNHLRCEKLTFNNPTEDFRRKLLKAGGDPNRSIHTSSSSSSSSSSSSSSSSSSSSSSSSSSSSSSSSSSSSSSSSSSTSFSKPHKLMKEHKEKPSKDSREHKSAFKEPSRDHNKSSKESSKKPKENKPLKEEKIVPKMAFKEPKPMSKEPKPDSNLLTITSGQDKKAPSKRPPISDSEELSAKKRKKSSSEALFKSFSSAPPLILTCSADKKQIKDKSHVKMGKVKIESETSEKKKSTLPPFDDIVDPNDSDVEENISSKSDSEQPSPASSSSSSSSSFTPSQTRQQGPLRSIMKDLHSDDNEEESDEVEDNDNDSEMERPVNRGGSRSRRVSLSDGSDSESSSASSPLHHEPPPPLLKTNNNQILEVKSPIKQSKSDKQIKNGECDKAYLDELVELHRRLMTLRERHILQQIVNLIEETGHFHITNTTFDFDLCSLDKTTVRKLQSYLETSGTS
rRNA inh HTS = selective bacterial rRNA inhibition in E. coli. E. coli WT GFP vs humanized-ribosome RFP mutants, fluorescence, 24 h; stronger effect = lower value; DMSO median 0, no signal -100. GFP signal change (wild-type ribosome), % (concentration not given with the values). hit rate 1.6% among 350,000;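 active means significant combined selectivity score with lowered wild-type GFP, culture density cut under 30%, mutant RFP and density less affected; inactive means any of these conditions unmet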; further: one replicate is shown; some compounds called inactive have numbers as strong as hits
rRNA inh HTS OD600 = further read-out of rRNA inh HTS, marked with its call; OD600 change, %; measured here: OD600 growth;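 optical density of the mix in the first replicate; 0 = DMSO median and -100 = no signal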
rRNA inh HTS RFP = further read-out of rRNA inh HTS, marked with its call; RFP signal change, %; measured here: RFP humanized mutant strains;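 first replicate; 0 = DMSO median and -100 = no signal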
Active calls of the source: *.

entry	SMILES	AF4-AF9 inh	rRNA inh HTS	rRNA inh HTS OD600	rRNA inh HTS RFP
1	CC(C)NC(=O)N(C)C[C@@H]1Oc2cc(C#CC(C)(C)O)ccc2S(=O)(=O)N([C@H](C)CO)C[C@H]1C	-2.0	5	-1	-3.5
2	C[C@H](CO)N1C[C@H](C)[C@@H](CN(C)C(=O)CN(C)C)Oc2cc(-c3ccc(C#N)cc3)ccc2S1(=O)=O	1.6	0	3	-0.1
3	C[C@H]1CN([C@@H](C)CO)C(=O)c2ccccc2-c2ccccc2CO[C@@H]1CN(C)Cc1cccc(C(F)(F)F)c1	0.7	-11	-20	6.5
4	C[C@H](CO)N1C[C@H](C)[C@@H](CN(C)C)OCCCC[C@H](C)Oc2ccc(NC(=O)C3CCCCC3)cc2C1=O	-0.3	4	0	-0.7
5	OC(c1ccc(F)c(F)c1)c1nc(-c2ccc3c(c2)OCO3)cs1 (configuration not stated)	-7.1	-56	-78	-18
6	CCCNC(=O)N1[C@H](CO)[C@H](c2ccc(-c3cccc(OC)c3)cc2)[C@@H]1C#N	-1.4	-50	-58	-7.0
7	C[C@@H]1CN([C@H](C)CO)C(=O)c2cccc(NC(=O)Nc3cccc4ccccc34)c2O[C@@H]1CN(C)Cc1ccccc1	6.7	-8	-29	-2.5
8	O=C(C[C@@H]1CC[C@H](NC(=O)C2CCOCC2)[C@H](CO)O1)NCc1ccccc1Cl	-22	1	2	0.4
9	CCc1c(Cc2cccc(F)c2)ncn1CCc1ccccc1OC	12	-54	-77	-13
10	COc1ccc(CN(C)C[C@H]2OCCCC[C@H](C)Oc3ccc(N(C)C)cc3C(=O)N([C@H](C)CO)C[C@@H]2C)cc1	6.8	1	3	-1.3
11	O=C(Nc1cccc(Cl)c1)N[C@H]1CC[C@@H](CCNC(=O)C2CC2)O[C@H]1CO	1.0	-1	1	1.1
12	COc1ccc(NC(=S)N2CCC3CC2c2cc(-c4ccc5c(c4)OCO5)ccc23)c(OC)c1 (configuration not stated)	1.8	-6	2	2.6
13	C[C@@H]1CN([C@@H](C)CO)C(=O)c2ccccc2-c2ccccc2CO[C@@H]1CN(C)C(=O)c1ccc(F)cc1	-2.6	2	4	-4.5
14	O=C(C[C@@H]1CC[C@H]2[C@@H](COC[C@@H](O)CN2CC2CCOCC2)O1)N1CCOCC1	-6.2	2	-1	-3.5
15	O=C(NCC[C@@H]1CC[C@@H](NS(=O)(=O)c2cccc(F)c2)[C@@H](CO)O1)c1cnccn1	-1.8	1	2	-2.2
16	COc1cc(CCN(C(=O)c2cccc(S(C)(=O)=O)c2)C(CCc2ccccc2)c2nc3ccccc3[nH]2)cc(OC)c1 (configuration not stated)	3.0	0	-8	2.3
17	C[C@H]1CN([C@@H](C)CO)C(=O)c2cc(C#Cc3ccccc3F)cnc2O[C@@H]1CN(C)C(=O)Cc1cccnc1	-2.4	-1	-2	3.2
18	O=C(C[C@H]1C=C[C@@H](NC(=O)CN2CCOCC2)[C@@H](CO)O1)NCCc1ccncc1	-3.8	2	4	-1.1
19	COc1ccc2c3c([nH]c2c1)[C@H](CO)N(C(C)=O)CC31CN(C(C)=O)C1	-1.1	0	-1	-4.0
20	COc1cccc(C(=O)N2C[C@H]3[C@@H](c4ccccc42)[C@@H](CO)N3C(=O)NC(C)C)c1	-10	2	11	-2.0
21	CO[C@@H]1CN(C)C(=O)c2cc(NC(C)=O)ccc2OC[C@@H](C)N(C(=O)C2CCC2)C[C@@H]1C	4.5	1	1	0.3
22	C[C@H](CO)N1C[C@H](C)[C@H](CN(C)Cc2ccncc2)Oc2ccc(NC(=O)Cc3cn(C)c4ccccc34)cc2C1=O	3.7	2	-6	0.5
23	C[C@H](CO)N1C[C@H](C)[C@@H](CN(C)C(=O)Nc2ccc3c(c2)OCO3)Oc2c(NC(=O)C3CCOCC3)cccc2C1=O	-2.5	1	7	0.1
24	C[C@@H]1CN([C@H](C)CO)C(=O)Cc2cc(NC(=O)c3ccncc3)ccc2O[C@@H]1CN(C)Cc1ccc(Oc2ccccc2)cc1	6.8	-7	-34	7.5
25	CC(C)(C)[S@](=O)N1Cc2cc(C(=O)N3CCc4ccccc4C3)nc(-c3cccc(-c4cncnc4)c3)c2[C@@H]1CCO	2.6	-1	5	3.4
26	COCC#Cc1ccc([C@H]2[C@H](CO)N3CCCCN(C(=O)COC)C[C@@H]23)cc1	-2.6	1	0	1.2
27	CC(C)(O)C#Cc1ccc([C@@H]2[C@H]3CN(C(=O)c4cccc(F)c4)CCCCN3[C@H]2CO)cc1	-7.9	-1	1	-2.6
28	COc1ccc(S(=O)(=O)N[C@@H]2CC[C@H](CCn3cc(-c4ccccc4F)nn3)O[C@H]2CO)cc1	-0.7	-6	-10	2.1
29	CC(=O)Nc1cnc(-c2ccc3c(c2)OCO3)cn1	1.1	2	11	-2.9
30	O=C(C[C@@H]1C[C@H]2c3cc(NC(=O)c4ccc5c(c4)OCO5)ccc3O[C@H]2[C@@H](CO)O1)NCc1ccc(Oc2ccccc2)cc1	2.5	0	13	20

Other results:
entry	SMILES	AF4-AF9 inh	rRNA inh HTS	rRNA inh HTS OD600	rRNA inh HTS RFP
31	NC(Cc1ccc(C(F)(F)F)cc1)c1csc(Nc2ccc(S(N)(=O)=O)cc2)n1 (configuration not stated)	9.7	-62	-81	-19
32	C[C@@H]1CN([C@@H](C)CO)S(=O)(=O)c2ccc(C#Cc3ccccc3)cc2O[C@@H]1CN(C)C(=O)Cc1ccccn1	0.8	-9	-25	15
33	CC(C)NC(=O)N[C@H]1CC[C@@H](CC(=O)NCCCN(C)C)O[C@H]1CO	0.0	2	6	-2.2
34	CO[C@@H](CN(C)S(=O)(=O)c1cn(C)cn1)[C@@H](C)CN(C(=O)Nc1ccc(C(F)(F)F)cc1)[C@@H](C)CO	1.7	-57	-83	-18
35	CCCNC(=O)N[C@H]1C=C[C@H](CC(=O)OC)O[C@@H]1CO	-0.6	9	3	2.7
36	COc1ccc(-c2cnc3c(NC(C)=O)cc(-c4ccccc4CN(C)C)cn23)cc1OC	5.0	-1	6	-1.0
37	C/C=C/c1ccc([C@H]2[C@@H](CO)N(CC3CC3)[C@@H]2CN(C(C)=O)C(C)C)cc1	0.1	2	11	-1.6
38	CCCN1[C@@H]2c3ccc(-c4ccncc4)c(=O)n3C[C@@H]2[C@@H](CO)[C@@H]1C(=O)NCCCN1CCOCC1	-2.8	1	6	1.3
39	COc1ccc(CN(C)C[C@H]2Oc3ccc(NS(=O)(=O)c4cn(C)cn4)cc3C(=O)N([C@H](C)CO)C[C@@H]2C)cc1	-4.3	5	3	-0.5
40	Cn1cnc(CCNC(=O)C[C@H]2CC[C@H]3[C@@H](COC[C@@H](O)CN3C(=O)Nc3ccc(Cl)cc3)O2)c1	3.5	-57	-74	-19
41	O=C(Nc1cccc(Cl)c1)N[C@@H]1CC[C@H](CCNC(=O)C2CCOCC2)O[C@@H]1CO	0.5	1	-2	2.2
42	C[C@@H]1CN([C@@H](C)CO)C(=O)c2cc(N(C)C)ccc2O[C@@H]1CN(C)S(=O)(=O)c1ccc(Cl)cc1	-0.2	-2	-2	-1.2
43	COc1cc(CN2[C@@H]3CNC[C@H]2C3c2ccc(-c3ccc(C#N)cc3)cc2)cc(OC)c1 (some centres not stated)	6.3	-3	-12	8.8
44	CN1CCN([C@@H]2CS(=O)(=O)N[C@H]2COCc2ccccc2)CC1	-1.3	7	8	-2.1
45	C[C@@H]1CN([C@H](C)CO)C(=O)c2cc(-c3ccccc3F)cnc2O[C@H]1CN(C)C(=O)C1CC1	10	6	4	-0.8
46	CN(C)C(=O)c1ccc(-c2ccc3c(c2)[C@@H]2[C@@H](CCN2C(=O)C2CCCC2)[C@H](CO)N3C)cc1	8.0	-11	-11	-2.5
47	C[C@@H]1CN([C@@H](C)CO)C(=O)c2cc(C#CCN(C)C)cnc2O[C@@H]1CN(C)Cc1ccccc1F	1.7	8	11	-6.1
48	CN1c2ccc(Br)cc2[C@H]2[C@H](CCN2C(=O)Nc2ccc(F)cc2)[C@@H]1CO	-4.3	-5	1	-2.9
49	C/C=C/c1ccc2c(c1)[C@@H]1[C@@H](CCN1C(=O)C1CCCC1)[C@H](CO)N2	7.9	2	23	2.4
50	COc1ccccc1Cn1c(C)c(C(=O)NCCC#N)sc1=O	-1.0	14	7	3.3
51	CO[C@H]1CN(C)C(=O)c2cc(NC(=O)C3CCOCC3)ccc2OC[C@H](C)N(Cc2nccs2)C[C@@H]1C	-1.9	3	6	-2.4
52	C[C@@H]1CN([C@H](C)CO)C(=O)c2cccc(NC(=O)C3CCCCC3)c2O[C@@H]1CN(C)S(C)(=O)=O	-3.4	2	6	-3.3
53	CO[C@H]1CN(C)C(=O)c2ccc(NC(=O)C3CC3)cc2OC[C@@H](C)N(C(=O)CN2CCOCC2)C[C@@H]1C	0.8	4	4	-0.5
54	O=C(NCC1CCCCC1)[C@H]1[C@H](CO)[C@H]2Cn3c(cccc3=O)[C@H]2N1Cc1ccccn1	-1.0	1	1	-0.2
55	C[C@H](CO)N1C[C@H](C)[C@@H](CN(C)Cc2ccc3c(c2)OCO3)Oc2c(NS(=O)(=O)c3ccc(Cl)cc3)cccc2C1=O	-0.2	-2	2	-1.4
56	O=C(O)C[C@@H]1C[C@@H]2c3cc(NS(=O)(=O)c4ccc(F)cc4)ccc3O[C@@H]2[C@H](CO)O1	-0.8	2	7	0.1
57	O=C(c1ccccc1F)N1C[C@@H]2[C@H](c3ccccc31)[C@@H](CO)N2Cc1ccc2c(c1)OCO2	4.1	-6	-3	5.5
58	O=C(C1CCC1)N1CC2(C1)[C@H](c1ccccc1)[C@H](CO)N2CCC(F)(F)F	-3.2	-2	-8	-1.7
59	Clc1cccc(Cc2c(C3CCCCC3)nc3ccc(Cl)cn23)c1	4.3	-5	-26	8.0
60	C[C@H](CO)N1C[C@H](C)[C@H](CN(C)C(=O)Nc2ccc(F)cc2)Oc2ccc(N(C)C)cc2CC1=O	-2.5	5	10	-1.4

Another view of 7 compounds above.
Below each compound: AF4-AF9 inh	rRNA inh HTS	rRNA inh HTS OD600	rRNA inh HTS RFP
[42] C[C@@H]1CN([C@@H](C)CO)C(=O)c2cc(N(C)C)ccc2O[C@@H]1CN(C)S(=O)(=O)c1ccc(Cl)cc1
 : -0.2	-2	-2	-1.2
[43] COc1cc(CN2[C@@H]3CNC[C@H]2C3c2ccc(-c3ccc(C#N)cc3)cc2)cc(OC)c1 (some centres not stated)
 : 6.3	-3	-12	8.8
[44] CN1CCN([C@@H]2CS(=O)(=O)N[C@H]2COCc2ccccc2)CC1
 : -1.3	7	8	-2.1
[45] C[C@@H]1CN([C@H](C)CO)C(=O)c2cc(-c3ccccc3F)cnc2O[C@H]1CN(C)C(=O)C1CC1
 : 10	6	4	-0.8
[46] CN(C)C(=O)c1ccc(-c2ccc3c(c2)[C@@H]2[C@@H](CCN2C(=O)C2CCCC2)[C@H](CO)N3C)cc1
 : 8.0	-11	-11	-2.5
[47] C[C@@H]1CN([C@@H](C)CO)C(=O)c2cc(C#CCN(C)C)cnc2O[C@@H]1CN(C)Cc1ccccc1F
 : 1.7	8	11	-6.1
[48] CN1c2ccc(Br)cc2[C@H]2[C@H](CCN2C(=O)Nc2ccc(F)cc2)[C@@H]1CO
 : -4.3	-5	1	-2.9

Next part
entry	SMILES	AF4-AF9 inh	rRNA inh HTS	rRNA inh HTS OD600	rRNA inh HTS RFP
61	CO[C@@H]1CN(C)C(=O)c2ccc(NS(=O)(=O)c3cn(C)cn3)cc2OC[C@H](C)N(Cc2cccc(F)c2)C[C@@H]1C	6.5	-3	-9	-0.2
62	COc1ccccc1NC(=O)N1CCCCN2[C@@H](CO)[C@H](c3ccc(-c4cccc(C#N)c4)cc3)[C@@H]2C1	-4.0	-8	-16	3.9
63	OC(c1ccccc1)c1nc(-c2ccc(Cl)cc2)cs1 (configuration not stated)	-5.1	-60	-77	-21
64	C[C@@H]1CN([C@@H](C)CO)C(=O)Cc2cc(NC(=O)CCC(F)(F)F)ccc2O[C@H]1CN(C)C	-2.7	4	2	-1.5
65	COc1cccc(NC(=O)N2[C@H](CO)[C@@H](c3ccccc3)[C@H]2CNCC(C)C)c1	3.4	1	-10	3.0
66	C[C@H](CO)N1C[C@H](C)[C@H](CN(C)S(C)(=O)=O)OCCCC[C@H](C)Oc2ccc(NC(=O)c3ccccc3)cc2C1=O	1.2	-4	-4	0.3
67	CO[C@H]1CC[C@H]2CCN(C)C(=O)CCCN(C)C(=O)c3cc(C#N)ccc3OC[C@@H]1O2	1.6	0	-3	-2.8
68	N#CCCC1(CCC#N)c2ccccc2C(=O)c2ccccc21	0.2	15	14	1.7
69	COc1ccc(NC(=O)N(C)C[C@H]2Oc3ccc(NS(C)(=O)=O)cc3C(=O)N([C@@H](C)CO)C[C@H]2C)cc1	-3.8	1	6	-1.5
70	C[C@@H]1CN([C@@H](C)CO)C(=O)Cc2cc(NS(=O)(=O)c3cccs3)ccc2O[C@H]1CN(C)Cc1ccc2c(c1)OCO2	7.3	-4	-17	2.6
71	O=C(N[C@@H]1CC[C@H](CCNS(=O)(=O)c2ccc(F)cc2)O[C@H]1CO)C1CC1	-0.7	1	3	-0.8
72	Cc1ccc(S(=O)(=O)Nc2ccc3c(c2)C(=O)N([C@@H](C)CO)C[C@H](C)[C@@H](CN(C)C(=O)Nc2ccc(F)cc2)OCCCC[C@H](C)O3)cc1	-0.7	-1	0	1.4
73	CCCNC(=O)N[C@H]1C=C[C@@H](CC(=O)NC2CCC2)O[C@H]1CO	-3.8	1	9	0.8
74	CC1(C(=O)NS(=O)(=O)C2CC2)CCN(C(=O)COCc2ccccc2)C1 (configuration not stated)	-1.0	0	5	2.4
75	Nc1ccc2ccc(N)cc2c1	15	-10	-12	-4.1

This is a subset (hit frequency here may not be typical).
